Source: PubChem BioAssay
RE007 growth inh – less growth of the S. pombe RE007 Vpr strain; S. pombe RE007 Vpr strain, BacTiter-Glo ATP luminescence, 24 h; control for the full effect not named in the record; Potency, µM (doses to about 92.2 µM), for inactives: top-dose activity change, negative = less growth; actives 0.21% (n = 360,000); active = well fitted falling curve with a large enough effect; inconclusive = small, poorly fitted or top-dose-only effect; inactive = no such curve, though single readings can be large or run the other way;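 further: on the % scale 0 is the no-effect control and ±100 the full control effect; nearly all actives have a fitted effect of over 50% in size; the assay follows cell death caused by Vpr and the record does not say whether a fall means rescue or toxicity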
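Fission yeast strain RE007, carrying one chromosomally integrated HIV-1 vpr copy, was seeded at OD 0.01 in PMG+AL medium with 23 nL pinned compound. After 24 h at 30 °C and 99% humidity, viability was read by BacTiter-Glo luminescence.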
MARV entry inh – blocks Marburg virus binding to or entry into cells; Marburg virus pseudotyped entry inhibition, cell reporter; control for the full effect not named in the record; about a third of the inactives were read at about 46 µM; Potency, µM (titrated, usually from 37.8 µM), without a hit: at the highest dose activity change, negative = inhibition, hits mostly inhibitors; actives 1.8% (n = 300,000); active = well fitted inhibition curve with a large enough effect; inconclusive = small, poorly fitted or top-dose-only effect, or effect the other way; inactive = flat fitted curve, though single readings scatter; tested in HEK293 cells; about a fifth of its hits are not listed in these tables; further: on the % scale 0 is the no-effect control and ±100 the full control effect; luciferase read-out
Cruzain Triton – inhibitors of Trypanosoma cruzi cruzain with detergent; purified cruzain, Z-FR-AMC fluorescence, 0.01% Triton; Potency, µM, for inactives: max response, negative = inhibition, usual class: inhibitors; actives 0.43% (n = 200,000);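 further: plate controls were neutral wells for no effect and buffer without enzyme for full effect; nearly all actives have a fitted effect of over 40% in size; top concentration of the series not given in the record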
Target sequence (P25779 123-467 limits assumed): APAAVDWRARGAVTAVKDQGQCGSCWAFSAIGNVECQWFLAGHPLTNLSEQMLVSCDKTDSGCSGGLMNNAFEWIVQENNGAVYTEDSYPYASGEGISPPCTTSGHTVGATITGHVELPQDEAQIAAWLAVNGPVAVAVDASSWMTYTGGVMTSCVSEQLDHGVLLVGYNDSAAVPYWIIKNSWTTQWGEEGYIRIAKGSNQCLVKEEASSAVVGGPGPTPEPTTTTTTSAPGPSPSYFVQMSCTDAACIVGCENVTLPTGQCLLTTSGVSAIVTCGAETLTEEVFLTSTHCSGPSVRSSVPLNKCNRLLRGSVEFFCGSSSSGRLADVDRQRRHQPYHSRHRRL
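Cysteine protease activity tested under reducing, mildly acidic conditions (100 mM sodium acetate pH 5.5, 5 mM DTT) plus 0.01% Triton X-100. Cruzain 1.5 nM; substrate Z-FR-AMC 2 uM; 15 min compound preincubation at room temperature.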
SARS PLP yeast – inhibitors of SARS-CoV papain-like protease in yeast; actives 0.19% (n = 330,000); Potency, µM (highest dose often 32.9 µM), without a hit: at the top dose activity, positive = growth rescue; S. cerevisiae expressing SARS-CoV PLpro, growth rescue; control for the full effect not named in the record; active means well fitted rising curve with a large enough effect; inconclusive means small, poorly fitted or top-dose-only effect; inactive means no such curve, though single readings can be large or run the other way; further: 0% is about no effect; nearly all actives have a fitted effect of over 55% in size; growth read by luminescence after 48 h
Cruzain noTriton – inhibitors of Trypanosoma cruzi cruzain without detergent | P25779 | actives 2.3% (n = 200,000) | purified cruzain, Z-FR-AMC fluorescence, no detergent | Potency, µM, for the others: max response, negative = inhibition, most hits filed as inhibitors;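 further: plate controls were enzyme without inhibitor for no effect and buffer without enzyme for full effect; nearly all actives have a fitted effect of over 40% in size; top concentration of the series not given in the record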
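Purified cruzain at 1.5 nM, pre-incubated 15 min with compound at room temperature in 100 mM sodium acetate pH 5.5, 5 mM DTT, 0.00005% Triton X-100. Reaction started with 2 uM Z-FR-AMC; AMC fluorescence increase over 60 s gives rate.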
NS1 inh – blocks influenza NS1 protein function; S. cerevisiae slowed by influenza A NS1, growth recovery by OD600; Potency, µM (highest dose often 46.1 µM), without a hit: top-dose activity, positive = more growth; actives 0.4% (n = 270,000); AID 2326; active means well fitted rising curve with a large enough effect; inconclusive means small, poorly fitted or top-dose-only effect; inactive means no such curve, though single readings can be large or run the other way; further: nearly all actives have a fitted effect of over 50% in size
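Read-out: OD600 growth recovery of NS1-expressing budding yeast. Cells grown overnight at 30C in -URA glucose medium, washed, resuspended and diluted 1:100 in 2% galactose assay medium, pH 6.0. Same strain lacking NS1 served as positive control.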
Lassa entry inh – Lassa virus entry inhibition. AID 540256. Lassa virus pseudotype entry inhibition, cell reporter; control for the full effect not named in the record. Potency, µM (titrated, usually from 37.9 µM), for the others: top-dose activity change, negative = inhibition, hits mostly inhibitors. actives 1.2% (n = 300,000); active means well fitted inhibition curve with a large enough effect; inconclusive means small, poorly fitted or top-dose-only effect, or effect the other way; inactive means flat fitted curve, though single readings scatter; tested in HEK293 cells; further: on the % scale 0 is the no-effect control and ±100 the full control effect; nearly all actives have a fitted effect of over 50% in size; luciferase read-out
StopGo reporter – lowers the luciferase signal of an FMDV 2A StopGo reporter; actives 1.2% (n = 410,000); AID 1159524; Potency, µM (doses to about 57.9 µM), for inactives: at the top dose signal change, negative = less light; human cells with a luciferase reporter of 2A StopGo recoding; control for the full effect not named in the record; active = well fitted falling curve with a large enough effect; inconclusive = small, poorly fitted or top-dose-only effect; inactive = no such curve, though single readings can be large or run the other way; tested in HEK293T cells; further: on the % scale 0 is the no-effect control and ±100 the full control effect; nearly all actives have a fitted effect of over 45% in size; luciferase light after 4 h
* = called active by the depositor; u = inconclusive; x = not tested or not shown; [ ] = dose if it differs, or a comment. Unless noted, the call rests on the fitted dose curve; in most records, active means well fitted curve in the direction sought with a large enough effect; inconclusive means small, poorly fitted or top-dose-only effect, or another doubt; inactive means no such curve, though single readings can be large; an effect the other way counts as inactive or inconclusive. Potency means the concentration at half of the fitted maximal effect. Compounds as they come; any-hit rate near 4.7%.

compound,StopGo reporter,MARV entry inh,NS1 inh,Cruzain noTriton,RE007 growth inh,Lassa entry inh,Cruzain Triton,SARS PLP yeast
CC(C)C1S/C(=N/N=C/c2ccco2)NC1=O (configuration not stated),x,19%,-8%,-10%,0%,2%,-0.3%,15%
COCCCNC(=O)c1cc2n(n1)CCCN(Cc1ccc(C)cc1)C2=O,-2%,x,x,2%,x,26%[46.1 µM],0.3%,x
c1ccc(C(c2nnnn2Cc2cccs2)N2CCN(C3CCCC3)CC2)cc1 (configuration not stated),-13%,u,-3%,-4%,-13%,-18%,0.6%,-3%
O=C(CSc1nnc(CNC(=O)c2ccccc2F)n1-c1ccccc1)Nc1ccccc1F,3%,x,x,-3%,x,-12%[46.1 µM],-0.8%,x
O=C(CN1CCCCC1)N1c2ccccc2Oc2ccccc21,-12%,-27%,-9%,-3%,-19%,8%,2.4%,-2%
CCOC(=O)C1CCCN(C(=O)c2ccccc2NC(=O)C2=C(C)OCCS2)C1 (configuration not stated),-5%,x,2%,x,-7%,x,x,11%
CN(C)c1ccc(NC(=O)COC(=O)c2ccc3c(c2)OCO3)cc1,23%,-1%,x,x,-11%,0%,x,-1%
O=C(Cc1ccccc1)N/N=C/c1ccc(OC(=O)/C=C\c2ccco2)cc1,26%,25%,0%,-9%,6%,-7%,-4.0%,-4%
COC(CNc1nc(SC)nc2sc3c(c12)CCN(C)C3)OC,-4%,-2%[46.1 µM],1%,x,3%,-5%,x,0%
Cc1ccc(C(=O)N/N=C\c2ccc[nH]2)cn1,27%,-24%,-7%,-3%,14%,0%,-1.0%,2%
CC1CCN(C(=O)C2CCN(S(=O)(=O)c3cc(Cl)ccc3Cl)CC2)CC1,-19%,-9%[46.1 µM],-10%,x,-15%,u,x,-6%
COc1cc(-c2nc(SCC(=O)Nc3ccc(C)cc3)c(-c3ccc(F)cc3)[nH]2)cc(OC)c1OC,-26%,u,x,u,x,u,3.2%,x
CNCCCNCc1ccc(SC)cc1,x,0%,2%,-2%,x,x,8.7%,-3%
COc1nc(N(C)C)nc(N2CC(=O)N(CCNS(=O)(=O)c3ccc(C)cc3)C2=N)n1,13%,13%,10%,7%,-5%,u,-0.3%,0%
COc1cccc(CC2(CO)CCCN(CC3=Cc4cc(OC)ccc4OC3)C2)c1 (configuration not stated),-16%,-21%[46.1 µM],-2%,x,-20%,x,x,1%
Cc1cc(C)cc(Nc2ncc3c(n2)CC(c2ccco2)CC3=O)c1 (configuration not stated),-12%,-21%,-80%,-6%,-4%,u,-13%,-22%
Cc1nnc(SCC(=O)Nc2ccccc2NC(=O)CSc2nnc(C)s2)s1,-7%,-5%,-2%,12%,-1%,5%,9.8%,x
O=C(Cn1c(=O)n(Cc2ccc(C(=O)NCc3ccccc3Cl)cc2)c(=O)c2ccccc21)Nc1ccc(F)c(Cl)c1,-6%,2%[46.1 µM],x,7.9µM*,x,u,-2.2%,x
Cc1cc(C)c(S(=O)(=O)NCC(c2ccc(N(C)C)cc2)N2CCc3ccccc32)c(C)c1 (configuration not stated),1%,x,x,20µM*,x,12%[46.1 µM],-2.5%,x
CC(=O)NCC(=O)NC1CC(C)(C)Cc2c1cnn2-c1ccccc1 (configuration not stated),6%,2%[46.1 µM],1%,x,0%,-9%[46.1 µM],x,5%
Cc1cc[n+](CC(=O)Nc2cccc(C)c2)cc1,5%,x,3%,x,1%,x,x,-4%
CC(C)(C)C(=O)OCC12CCC(O1)C1(C)C(=O)OCC21 (configuration not stated),-18%,30%,-4%,-10%,-1%,-8%,-1.0%,8%
C=CCn1c(=O)[nH]c2cc(C(=O)N3CC=C(c4ccccc4)CC3)ccc2c1=O,-5%,8%[46.1 µM],x,x,2%,-3%[46.1 µM],x,0%
COc1ccc(-c2cc(=O)oc3cc(OCC(=O)NCCCn4ccnc4)ccc23)cc1,-15%,x,-4%,x,-9%,x,x,8%
CN(C)CCOc1cccc(Br)c1,5%,11%[46.1 µM],1%,x,-5%,2%,x,-1%
Cc1cc(C=O)c2c(c1)C=CC1(Oc3ccccc3C(=O)N1C)O2 (configuration not stated),x,x,-15%,u,x,x,-8.2%,-39%
Cc1ccc(C2(CCNC(C)c3cccs3)CCOC(C(C)C)C2)cc1 (configuration not stated),-5%,u,-1%,x,-3%,u,x,0%
COc1ccc(Cl)cc1NS(=O)(=O)c1cccc2cccnc12,13%,-20%,-2%,x,-9%,-2%,x,-1%
Cc1cccc(NC(=O)CCN2CCCC(C)C2)c1 (configuration not stated),10%,-18%,6%,x,2%,11%,x,-6%
COc1ccccc1Nc1nc(-c2cccs2)cs1,55%[activator],u,-26%,-19%,-12%,u,-18%,-9%
COCCn1c(SCC(=O)c2cccc(OC)c2)nnc1-c1ccco1,5%,u,-2%,0%,3%,5%,-1.3%,2%
Cc1ccc(C(=O)C(OC(=O)c2cnccn2)c2ccccc2)cc1 (configuration not stated),9%,x,2%,x,17%,x,x,0%
O=C1NC(=O)C2(CCCCCCCCCCC2)N1,-14%,8%[46.1 µM],1%,x,-23%,-10%,x,1%
COc1cc(OC)cc(C(=O)Nc2c(C(=O)Nc3ccc(F)cc3)oc3ccccc23)c1,13%,u,x,6%,x,6%[46.1 µM],-3.7%,x
CCOC(=O)c1sc(=S)n(-c2cc(OC)ccc2OC)c1N,-10%,-14%[46.1 µM],-85%,-16%,u,4%,-11%,-31%
CCN1CCN(C(c2ccccc2)c2sc3nc(-c4ccco4)nn3c2O)CC1 (configuration not stated),-21%,x,x,-5%,x,20%[46.1 µM],-1.3%,x
COc1ccc(C)cc1NC(=O)C(Sc1nnc(-c2ccncc2)n1-c1ccc(Cl)cc1)c1ccccc1 (configuration not stated),-22%,u,u,u,32%,u,-8.5%,-2%
C=CCNC(=O)C1CC(=O)N(c2ccc(OCC(=O)Nc3cccc(OC)c3)cc2)C1 (configuration not stated),35%[activator],28%,-8%,16%,-15%,29%,0.7%,-2%
CCOC(=O)c1ccc(N2C(=O)CC(N3CCC(C(N)=O)(N4CCCCC4)CC3)C2=O)cc1 (configuration not stated),x,13%,-30%,0%,-19%,0%,-0.5%,-79%
O=C(CCCc1ccccc1)Nc1ccnn1C1CCN(Cc2ccc(CO)o2)CC1,-8%,u,7%,x,9%,6%,x,-1%
O=C(Cc1cccs1)NCCCc1ccccc1,12%,-12%[46.1 µM],-2%,x,33%,u,x,-1%
CCc1ccc(NCCC(=O)c2ccc(Cl)cc2)cc1,x,u,-4%,-21%,-26%,0%,3.2%,2%
CCN(CCCNC(=O)c1cc2c(=O)n(CC)c3ccccc3c2s1)c1ccccc1,-28%,16%[46.1 µM],x,0%,x,-12%[46.1 µM],0.0%,x
Cc1ccc(NC(=O)CSc2nnc3scc(-c4ccccc4)n23)cc1,-8%,13%[46.1 µM],x,-8%,x,19%[46.1 µM],-5.2%,x
COc1ccc(/C(C)=N/Nc2nc3ccccc3nc2C)cc1OC,-1%,-16%,-8%,x,-7%,-21%,x,0%
O=C(Nc1ccc2c(c1)CCC2)C1CCCO1 (configuration not stated),62%[activator],u,-2%,-2%,13%,12%,-3.7%,-3%
CC1CCN(CC(O)COC2CC(C)CCC2C(C)C)CC1 (configuration not stated),-24%,x,7%,x,-2%,x,x,-1%
Cn1nc(-c2ccccc2)c(CSc2cccc(Cl)c2)c1Cl,u,u,7%,3%,-8%,-5%,-1.7%,-27%
COc1ccc(C)cc1N(CC(=O)NCCSCc1cccc(Cl)c1)S(C)(=O)=O,-28%,u,-9%,x,-6%,u,x,2%
Cc1cc(C(F)(F)F)n(-c2ccc(N)cc2)n1,-6%,13%,x,x,15%,4%,x,1%
O=C1OC(/C(=C\NCc2ccccc2)[N+](=O)[O-])c2ccccc21 (configuration not stated),19%,-8%[46.1 µM],-2%,x,2%,u,x,-2%
Cc1onc(-c2c(Cl)cccc2Cl)c1NC(=O)N1CCSCC1,-5%,-2%,1%,x,-7%,-8%,x,1%
COC(=O)CS(=O)(=O)c1ccc(C)cc1,2%,-14%[46.1 µM],3%,x,6%,25%,x,2%
COc1ccc(OC)c(CNC(=O)c2ccc(NC(=O)c3nsc4ccccc34)cc2)c1,5%,x,x,u,x,-14%[46.1 µM],-0.4%,x
COc1cc(S(=O)(=O)N2CCOCC2)ccc1NC(=O)COC(=O)CC12CC3CC(CC(C3)C1)C2,-16%,-65%,u,u,11%,16µM*,0.5%,-7%
O=C(NNC(=O)c1cc2ccccc2o1)c1ccc(F)cc1,65%[activator],3%,x,x,-9%,-1%,x,5%
CC(=O)N1CCC(N(CCN2CCOCC2)C(=S)Nc2c(C)cccc2C)CC1,-10%,-4%,6%,-2%,24%,3%,1.0%,15%
COc1ccccc1N(CC(=O)Nc1ccc(C)cc1Cl)S(=O)(=O)c1cccs1,0%,u,x,x,-18%,u,x,7%
Cc1cc(C)nc(N/N=C/c2c[nH]c3ccccc23)n1,8%,-18%[46.1 µM],x,x,4%,1%[46.1 µM],x,-10%
O=[N+]([O-])c1ccccc1S(=O)(=O)NC1CCCCCCC1,6%,u,-21%,x,2%,u,x,-1%

(more compounds)
compound,StopGo reporter,MARV entry inh,NS1 inh,Cruzain noTriton,RE007 growth inh,Lassa entry inh,Cruzain Triton,SARS PLP yeast
O=C(COc1cccc2c1CCN(Cc1ccccc1F)C2=O)N1CCCCC1,-16%,u,x,x,38%,-19%,x,-6%
COc1cc(C(O)P(=O)(OCC(C)C)c2ccc(N(C)C)cc2)cc(OC)c1OC (configuration not stated),17%,2%,-2%,x,-13%,-17%,x,3%
CC(C)COc1ccc(C(=O)N/C(=C/c2cccc([N+](=O)[O-])c2)C(=O)O)cc1,-6%,x,u,x,-1%,x,x,0%
Cc1nc(NC(=O)CCl)sc1C(=O)N(C)C,u,x,3%,x,-10%,x,x,0%
Cc1ccc(S(=O)(=O)N(C)c2nonc2C)cc1,-14%,2%,-4%,2%,7%,22%,-4.5%,-7%
CC(=O)c1sc(NC(=O)CCS(=O)(=O)c2ccc(C)cc2)nc1C,-7%,u,x,x,8%,-25%,x,7%
